# Calb FLC: C. albicans growth modulation with fluconazole | C. albicans CaCi-2 (fluconazole-resistant clinical isolate) + fluconazole, Alamar Blue growth, 48 h | growth inhibition, % (test concentration not listed) | 300,000 compounds, 0.57% hits | AID 1979;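 active = most replicates above 75%; inconclusive = exactly half above 75%; inactive = most below 75%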;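 note: all wells also contain fluconazole at 8 µg/ml as a sub-toxic cotreatment; 0% = median of DMSO wells and 100% = median of geldanamycin control wells; wells of about 8 µL received 7.5 nL stock; the first replicate is given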
# Beta cell apopt: blocks beta cell apoptosis | INS-1E cytokine-induced death, ATP luminescence, 48 h; percent of positive-control rescue, neutral wells zero | protection from apoptosis, % (no concentration beside the values) | 300,000 compounds, 0.8% hits;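 active = all replicates at 75% or more, or half of them and the mean; inconclusive = half reach 75% but not the mean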;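 note: 0% = cytokine-treated negative control wells and 100% = positive control rescue; higher means more ATP so stronger rescue from cytokine killing; wells of about 40 µL received 100 nL stock; the first replicate is given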
# B2AR ag: agonists of human beta-2 adrenergic receptor inducing internalization. P07550. 340,000 compounds, 0.43% hits. response, % (test concentration not listed). Am2.2-beta2AR cells, FAP receptor internalization, flow cytometry; reference of the scale not given here;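 active = response above a set limit, near 3 SD of response in nonfluorescent compounds, cut at about 42% in these data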;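 note: stock transfer was 100 nL into about 11 µL; a reference agonist was the positive control; negative values mostly stem from fluorescent compounds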
# Target sequence (P07550 whole entry, looked up): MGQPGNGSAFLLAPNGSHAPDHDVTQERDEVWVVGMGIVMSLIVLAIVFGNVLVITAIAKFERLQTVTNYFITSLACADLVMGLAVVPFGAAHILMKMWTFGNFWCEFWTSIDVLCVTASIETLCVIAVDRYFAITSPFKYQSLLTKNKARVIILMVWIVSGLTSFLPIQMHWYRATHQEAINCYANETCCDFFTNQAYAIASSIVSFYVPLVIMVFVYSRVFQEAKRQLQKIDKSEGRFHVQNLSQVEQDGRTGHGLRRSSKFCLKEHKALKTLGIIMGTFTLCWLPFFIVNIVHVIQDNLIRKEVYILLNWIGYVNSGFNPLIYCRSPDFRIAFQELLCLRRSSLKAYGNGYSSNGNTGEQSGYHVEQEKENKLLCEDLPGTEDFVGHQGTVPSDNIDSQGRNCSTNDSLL
# T cruzi inh: blocks replication of Trypanosoma cruzi. inhibition, % (concentration not given with the values). T. cruzi beta-gal in NIH3T3, luminescence, 90 h. 300,000 compounds, 1.4% hits;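 active = mean inhibition across valid replicates above about 55%, limit read from the data; inconclusive = mean below that limit but half or more replicates reach it; inactive = mean below it, under half of replicates reach it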;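 note: signal also drops with host cell toxicity which is not excluded here; 0% = plate median of DMSO wells and 100% = zero luminescence signal; higher percent means less beta-gal luminescence so fewer parasites; stock transfer was 50 nL into about 50 µL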
# UCH37 DUB inh: inhibitors of human deubiquitinating enzyme UCH37. AID 588478. inhibition, % (no concentration beside the values). purified proteasome/UCH37, Ub-AMC cleavage fluorescence. Q9Y5K5. 330,000 compounds, 0.33% hits;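 active = mean of two replicates above 20%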;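 note: 0% = compound-free wells with enzyme and 100% = wells lacking proteasome; stock transfer was 100 nL into about 20 µL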
# Target sequence (Q9Y5K5 whole entry, looked up): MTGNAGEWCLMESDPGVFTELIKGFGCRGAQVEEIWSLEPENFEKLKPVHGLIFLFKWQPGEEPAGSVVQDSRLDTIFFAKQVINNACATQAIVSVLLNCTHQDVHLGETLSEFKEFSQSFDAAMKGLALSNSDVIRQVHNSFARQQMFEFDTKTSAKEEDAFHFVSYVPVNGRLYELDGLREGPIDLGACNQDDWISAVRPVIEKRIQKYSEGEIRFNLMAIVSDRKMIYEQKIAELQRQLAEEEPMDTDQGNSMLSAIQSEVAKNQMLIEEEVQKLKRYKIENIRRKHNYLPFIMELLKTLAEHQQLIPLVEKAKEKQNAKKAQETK
#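 Test system – human UCH37 enzyme supplied as purified proteasome complex · Incubation – 30 min preincubation with enzyme, 25 min cleavage at room temperature · Detection – AMC fluorescence from Ub-AMC cleavage, excitation 355 nm, emission 460 nm · Benchmarks – no-proteasome wells (full inhibition) and compound-free wells (no inhibition)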
# RanGTP-Impb inh: inhibitors of RanGTP-importin-beta interaction, primary screen, biochemical, FRET, CFP-Ran, YFP-importin-beta, homogeneous. AID 2216. cell-free CFP-Ran/YFP-importin-beta FRET ratio. inhibition, % (test concentration not listed). 300,000 compounds, 1.1% hits;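 active = most replicates above 15%; inconclusive = exactly half above 15%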;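 note: 0% = DMSO wells and 100% = Ran loaded with GDP instead of GTP; wells of about 40 µL received 100 nL stock; the first replicate is given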
# Bfl-1 A1 inh: inhibitors of the anti-apoptotic protein A1, read as caspase activation. MEF A1-2A-BIM cells, Caspase-Glo 3/7 luminescence, 3 h; percent of clofoctol response, vehicle zero. 330,000 compounds, 0.066% hits. AID 2462. caspase activation, % (concentration not given with the values);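 active = over half of replicate activation scores above 10%, or exactly half above 10 with the replicate mean above 10; inconclusive = replicate mean below 10 yet half the replicates above 10; inactive = over half of replicates below 10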;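 note: wells of about 30 µL received 50 nL stock; many hits fall short of the cut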
# LANA-H2B inh: blocks KSHV LANA binding to histone H2A/H2B | cell-free LANA-H2A/H2B peptide, fluorescence polarization | inhibition, % (test concentration not listed) | 320,000 compounds, 0.6% hits; in the data active = inhibition mostly above about 10%, no sharp cut-off; inactive = mostly below about 6.7%;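 note: stock transfer was 7.5 nL into about 10 µL; 0% = median of vehicle wells and 100% = median of positive control wells; one replicate is shown; the record names a cut of 25% in any replicate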
# Active calls of the source: *; i = inactive; ? = inconclusive; · = no result given.
Molecule,Calb FLC,Beta cell apopt,B2AR ag,T cruzi inh,UCH37 DUB inh,RanGTP-Impb inh,Bfl-1 A1 inh,LANA-H2B inh
COc1c(N2CCN(C(=S)NC3CC4CCC3C4)C(C)C2)c(F)cc2c(=O)c(C(=O)O)cn(C3CC3)c12 (stereo not given),-14,18,4,28,-43,?,0.3,2.6
Cc1cc(N2CCN(C)CC2)nc2ccc(NC(=S)NCCN3CCc4ccccc4C3)cc12,-4,-8,26,56*,-15,11,0.9,-5.8
Cn1c(SCC(=O)NC(C)(C)C)nnc1-c1cnccn1,-6,-5,-7,0,-0.1,?,0.4,0.0
CCOC(=O)C1CCN(C(=O)c2ccc(CNS(=O)(=O)c3ccc(C)cc3)cc2)CC1,-4,-5,2,9,0.3,2.5,0.5,-1.6
Cc1nn(C(C)C)c(C)c1CN1CCC(C(=O)Nc2cccc(-c3cccc(F)c3)c2)CC1,-7,5,12,55*,4.4,?,1.0,-4.1
O=C(N/C=C/c1ccco1)NCc1ccccc1,-5,-1,-1,-14,-1.5,3.0,0.2,-2.8
Cc1ccc(N(CC(=O)NC2CCCC2)C(=O)c2c(C)noc2C)cc1C,15,4,-9,1,1.4,1.8,0.8,-1.1
Cc1ccc2nc(NCCc3ccccc3)c3nncn3c2c1,-1,·,14,1,-51,3.8,·,·
CCOC(=O)CC1CCCCN1C(=O)c1ccc2oc(CCc3ccccc3)nc2c1 (stereo not given),-9,2,0,10,5.3,-1.1,1.7,6.9
CCCCn1cnc2c(oc3ccccc32)c1=O,-6,-4,-3,6,3.2,-0.2,0.3,-0.3
Cc1ccccc1NC(=O)CN1CCN(C(=O)c2ccco2)CC1,-1,1,-6,-17,1.6,4.8,-0.5,-2.0
Cc1ccc(C)c(CSC2=NN3CCCC(=O)N=C3S2)c1,-4,-2,-2,8,5.9,1.6,0.0,2.9
COc1ccc(NC(=O)c2nc(-n3nc(C)cc3C)ccc2Cl)cc1Cl,-1,2,6,14,-14,-3.9,0.0,0.6
Cc1ccccc1NS(=O)(=O)c1ccc2oc(=O)ccc2c1,-4,4,-1,1,-1.5,2.1,-0.8,3.1
COc1ccc2c(=O)c(N3C(=O)c4ccccc4C3=O)c(C)oc2c1,-3,3,1,2,3.7,1.4,0.3,5.8
CC(CCc1ccccc1)NCc1ccncc1 (stereo not given),29,-2,-7,34,2.4,3.3,-0.5,-2.3
Cc1ccc(C(C)C)c(OCCSc2nc3ccccc3n2CC(=O)O)c1,3,1,6,5,3.9,2.4,0.6,-2.2
CCOc1ccc2c(c1)/C(=N/N1C(=O)c3ccccc3C1=O)C(=O)N2,-5,-9,9,-11,·,1.9,-0.2,-0.4
Cc1nn(CC(=O)Nc2ccc3c(c2)nc(CCN2CCCCC2)n3C)c(=O)c2ccccc12,2,·,2,14,0.4,5.3,·,·
Cn1cc(Cl)c(C(=O)Nc2nc3ccc(Cl)cc3s2)n1,-17,·,-9,16,-38,-0.2,-6.6,-2.3
COc1ccccc1NC(=O)CCCc1nnc2n(C)c(=O)c3sccc3n12,23,-2,2,-12,-0.7,-3.4,0.2,4.2
O=C(NCCc1ccc2c(c1)OCO2)C1CCN(S(=O)(=O)c2ccc(Cl)cc2)CC1,-4,2,-3,7,5.2,-1.0,0.0,-11
CCCN(CCC)Cc1c(C(=O)OCC)nnn1-c1nonc1N,6,-6,6,-3,1.8,3.3,0.4,·
COCCCC1CCN(C(=O)C2CCC(=O)N(Cc3ccccc3F)C2)CC1 (stereo not given),-36,0,-8,-26,5.3,-3.2,1.6,-31
Cc1nn(CC2CC2)c(=O)n1-c1ccc(C(C)C)cc1,?,-4,5,6,1.2,3.0,-0.3,-2.2
CCOc1ccc(-c2cn(CCC#N)cn2)cc1,-10,·,9,0,0.1,?,0.5,2.1
Cc1ccc(-c2csc(NC(=O)CSc3nnc4c(n3)[nH]c3ccccc34)n2)cc1,·,-1,-2,·,4.6,·,-0.7,-1.3
O=Cc1c(-c2ccc(Cl)cc2)oc2ccc(O)cc12,4,·,3,5,5.2,-2.0,-5.1,0.7
CCOC(=O)c1c2n(c3ccc(OC(C)=O)cc13)CCC2,-7,-3,10,-6,3.0,-0.5,1.1,-0.1
COc1ccccc1C(=O)COC(=O)C1(C)CC1(Cl)Cl (stereo not given),·,-4,-2,·,4.5,·,-0.8,4.7
CC(C)OC(=O)c1ccc(NC(=S)NC(=O)c2cncc(Br)c2)cc1,-2,2,15,-7,2.1,2.0,-0.6,-3.6
COc1ccc(CCN(C)c2ccc(S(=O)(=O)N3CCCC3)cn2)cc1OC,14,2,-2,-1,-0.9,1.9,0.9,-5.2
C=CCOc1ccc(C2N3CC4(CC)CN2CC(CC)(C3)C4=O)cc1 (stereo not given),-8,1,-1,15,1.7,-1.3,-0.3,1.3
COc1ccccc1CCC(=O)Oc1ccccc1C#N,-12,-6,9,2,3.4,2.6,0.3,0.5
CNC(=S)N(CCc1c(C)[nH]c2ccc(OC)cc12)Cc1cccnc1,-4,0,2,11,5.7,1.0,0.5,-1.8
COCc1c(C#N)c(NCCc2ccccc2)nc(C)c1[N+](=O)[O-],-1,7,14,7,2.2,-0.2,0.6,-0.9
O=C(OCC(=O)c1c[nH]c2ccccc12)c1cccc(O)c1,33,-3,-3,4,2.7,6.3,-1.6,·
Oc1ccccc1C=Nc1ccccc1-c1nc2ccccc2[nH]1,3,-1,8,-6,-463,-0.5,-0.3,2.3
CC1Cc2ccccc2N1C(=O)COC(=O)c1ccc([N+](=O)[O-])o1 (stereo not given),·,-3,9,·,26*,·,-0.7,-0.2
CN(C)CC(NC(=O)c1cccc(S(=O)(=O)Nc2ccc3c(c2)OCO3)c1)c1ccccc1 (stereo not given),·,1,-4,·,1.9,·,-0.7,3.0
COc1ccc2cc3cc(C(=O)NCCCN4CCOCC4)oc3nc2c1,16,7,-1,58*,i,4.3,1.4,-7.2
O=C(O)CSc1cc(C(=O)c2cc(F)ccc2O)cn2c(=O)c3c(-c4ccccc4)csc3nc12,17,1,11,-6,10,-9.9,-0.6,-6.7
CCOc1cc(N2CCOCC2)c(OCC)cc1NC(=O)C(C)(C)C,2,-24,-3,-16,0.7,2.6,0.0,6.8
COc1ccc(CCNC(=O)CCC(=O)n2ncc3cc(C)ccc32)cc1OC,6,-7,-21,-10,1.5,-0.5,0.2,-1.0
O=C(Nc1ccc2ccccc2c1)c1cnccn1,5,-3,8,-9,-1.1,-0.7,-7.0,-3.6
NC(=O)c1nc(N2CCOCC2)nc(N2CCOCC2)n1,3,-3,-10,6,0.8,-0.3,0.4,1.0
Cc1ccc(/C=C2/Sc3ccccc3N(CC(=O)NCC3CCCO3)C2=O)cc1 (stereo not given),-4,0,-3,4,-6.1,-3.7,0.2,-0.7
CN(Cc1ccc(N(C)C)cc1)C(=O)c1cc2ccccc2o1,7,3,18,42,-0.3,2.4,1.5,-10
O=C(CCCCCn1c(=S)[nH]c2ccccc2c1=O)N1CCOCC1,5,3,-16,-8,2.1,?,-0.1,2.3
COc1cccc(CNC(=O)CCCNC(=O)c2ccc(Cl)cc2)c1,-9,1,-12,-19,0.8,0.7,0.7,-28
O=C(Nc1cccc([N+](=O)[O-])c1)NC1CCCCCCC1,-30,8,3,·,2.4,·,-0.6,-1.9
CCOC(=O)c1cc(C#N)c(NCc2ccccc2)nc1C,?,-1,1,23,-11,-1.2,-0.5,-0.4
Cc1cc(NN)nc(NS(=O)(=O)c2ccccc2)n1,-2,·,-3,-4,2.4,3.3,-1.0,-1.5
CCOc1cc(CNCCc2c[nH]c3ccccc23)cc(Cl)c1OCC(N)=O,8,-3,-15,20,4.5,-3.4,0.2,0.4
CCc1ccc(N(C)S(=O)(=O)c2ccc3[nH]cc(C(=O)NCCN4CCOCC4)c(=O)c3c2)cc1,8,6,-3,-3,0.6,-2.4,-1.9,-14
CCOc1ccc(OCc2ccc(C(=O)Nc3cccnc3)cc2)cc1,·,0,4,·,4.1,·,-2.0,·
COc1ccccc1-n1cnc(N)c1C(=O)c1ccccc1,-5,1,-6,-12,2.3,1.2,-0.7,-1.2
Fc1ccc(NC(=S)NNc2ncc(C(F)(F)F)cc2Cl)c(F)c1,-3,64,22,-6,0.5,-1.3,-1.6,-0.8
COc1ccc(-c2cc(C(=O)NC(C)C)no2)cc1,-13,-7,-9,2,1.2,-0.6,-3.8,-1.0
COC(=O)C(NC(=O)c1ccccc1)=C1C=C(C)OC(C)=C1,12,0,2,-14,6.4,-2.0,0.2,6.7

# (more compounds)
Molecule,Calb FLC,Beta cell apopt,B2AR ag,T cruzi inh,UCH37 DUB inh,RanGTP-Impb inh,Bfl-1 A1 inh,LANA-H2B inh
CC(C)CN1CCN(Cc2cccc3ncccc23)CC1CCO (stereo not given),6,-4,3,4,-0.5,-0.1,1.2,4.0
CCc1ccccc1NC(=O)Nc1cccn(Cc2ccc(F)cc2)c1=O,-2,9,1,2,-7.0,?,-0.9,-0.9
O=C(c1ccco1)N(CCCN1CCOCC1)c1nc(-c2ccc(F)cc2)cs1,-17,7,12,69*,-9.5,5.4,0.2,-4.3
c1cnc2c(OCc3cn4cccnc4n3)cccc2c1,·,-2,0,·,1.6,·,0.4,1.9
COc1ccc(/C=N/NC(=O)c2ccc(COCC(F)(F)C(F)F)cc2)cc1,0,0,-3,2,·,0.6,0.3,-4.1
COc1cc(/C=N/Nc2ccc(C(=O)O)cc2)cc(OC)c1OC,-1,0,1,-1,·,-2.4,-13,0.5
COc1ccc(NS(=O)(=O)c2cccc(C(=O)NCC(c3ccc(OC)cc3)N3CCOCC3)c2)cc1 (stereo not given),4,-3,-3,5,·,0.0,0.0,-0.5
CCOc1ccc(OCC)c(-c2c(=O)n(OCc3ccccc3C(=O)OC)c3ccccc3[n+]2[O-])c1,-7,-1,1,37,3.8,-1.5,-0.3,3.1
O=C(CSc1ccc(-c2ccco2)nn1)NC1CCCCC1,-5,-8,-4,·,-4.7,·,0.0,2.4
Cc1cc(/C=c2/sc3nc4ccccc4n3c2=O)c(C)n1-c1ccccn1,5,23,2,4,·,16*,-5.1,1.2
CCn1cc(C(=O)Nc2ccc(-n3cnnn3)c(OC)c2)c(=O)c2ccc(C)nc21,33,·,·,-4,1.6,?,·,·
Cc1ccc(C(=O)NC2CC(C)(C)NC(C)(C)C2)c(C)c1,-7,-5,0,8,0.4,0.9,0.0,1.1
COc1ccc(N2CCN(CC(O)COc3ccc(F)cc3)CC2)cc1 (stereo not given),-11,5,1,-1,5.9,0.6,0.5,0.8
Cc1cc(NC(=O)CN2CCN(c3ncccn3)CC2)no1,-26,-3,-7,-6,1.4,-6.8,0.8,-1.7
COc1ccc(C(C(=O)NCC2CCCO2)N(C(=O)CNC(=O)c2ccco2)c2cc(C)cc(C)c2)cc1OC (stereo not given),-10,-1,-11,2,5.9,2.0,-0.3,1.1
O=C(CNC(=O)c1cc2ccccc2o1)NCc1cccs1,-4,3,1,·,0.4,·,0.8,0.1

# Screening data (PubChem)
